Assay outcomes as filed in PubChem BioAssay.
DUX4 txn inh: inhibitors of DUX4-driven ZSCAN4 reporter expression, primary screen, 293T cells, Gaussia and Italica luciferase; 293T-iDUX4 ZSCAN4-Gaussia luciferase reporter, 24 h; active compounds read low; activity change, negative = inhibition, % (no concentration beside the values); 0.8% of 37,000 active; AID 1224904, 2016;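 active means -10% or lower and over 25 points stronger than a control reporter; inconclusive means -10% or lower with a smaller gap; inactive means above -10%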;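 further: 0% = median of neutral control wells and -100% = median of positive control wells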
DUX4 txn inh difference: further read-out of DUX4 txn inh, marked with its call; Gaussia minus Italica difference, %; measured here: selective DUX4 reporter inhibition;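 worked out from the two reporters; negative = selective loss of the DUX4 reporter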
DUX4 txn inh control: further read-out of DUX4 txn inh, marked with its call; activity change, negative = inhibition, %; measured here: Italica tet-on control reporter;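 0 = neutral control and -100 = positive control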
* = called active by the depositor; ? = inconclusive; · = no result given; & = joins results of further samples. The list is partial. The share of hits here may be higher or lower than overall.

SMILES	DUX4 txn inh	DUX4 txn inh difference	DUX4 txn inh control
CCCC#Cc1ccc2c(c1)[C@@H]1[C@@H](CCN1S(=O)(=O)c1ccccc1)[C@@H](CO)N2C	12	17	-5.2
O=C(N[C@H]1C=C[C@@H](CC(=O)N2CCOCC2)O[C@H]1CO)c1ccccn1	6	2	3.5
CN(C)CC(=O)Nc1ccc2c(c1)[C@H]1C[C@@H](CC(=O)NCc3ccncc3)O[C@@H](CO)[C@H]1O2	0	-6	5.9
O=C(C[C@@H]1CC[C@@H]2[C@H](COC[C@@H](O)CN2C(=O)c2ccccn2)O1)NC1CCC1	10	14	-3.9
CN1C(=O)c2cc(NC(=O)C3CCOCC3)ccc2OC[C@@H]2O[C@@H](CC(=O)NCCc3ccncc3)CC[C@H]21	-1	-2	0.7
CCC(=O)N(CC)C[C@@H]1[C@@H](c2ccc(-c3cccnc3)cc2)[C@H](CO)N1C(C)=O	1	-3	3.4
Cc1cccc(-c2ccc([C@H]3[C@H](CO)N4CCCCN(S(=O)(=O)c5cccs5)C[C@@H]34)cc2)c1	?	·	·
Cc1ccccc1S(=O)(=O)N1C[C@H](O)COC[C@@H]2O[C@H](CC(=O)N3CCC(Cc4ccccc4)CC3)CC[C@H]21	-9	-6	-2.7
COc1cccc(C#Cc2ccc([C@H]3[C@@H](C#N)N[C@@H]3CO)cc2)c1	-6	-2	-4.2
COc1ccc(-c2ccc(C3[C@H]4CNC[C@@H]3N4Cc3cc(F)ccc3F)cc2)cc1 (some centres not stated)	3	-11	14
CO[C@@H]1CN(C)C(=O)c2cc(NS(C)(=O)=O)ccc2OC[C@@H](C)N(Cc2nccs2)C[C@H]1C	7	4	2.7
C[C@@H]1CCCCO[C@H](CN(C)C(=O)Nc2cccc3ccccc23)[C@H](C)CN([C@@H](C)CO)C(=O)c2cc(NC(=O)c3ccncc3)ccc2O1	3	-2	4.8
COc1cccc(-c2ccc3n(c2=O)C[C@@H]2[C@@H](CO)[C@H](C(=O)NC4CCC4)N(S(C)(=O)=O)[C@H]32)c1	-5	-11	5.2
COCC(=O)N1CCCCN2[C@H](C1)[C@@H](c1ccc(C#Cc3ccccc3)cc1)[C@@H]2CO	?	·	·
CC(=O)N1CC(=O)N2[C@H](CO)[C@H](c3ccc(-c4ccc(C(=O)N(C)C)cc4)cc3)[C@@H]2C1	18	5	13
CNC[C@H]1Oc2c(NC(=O)Nc3ccc(C(F)(F)F)cc3)cccc2C(=O)N([C@H](C)CO)C[C@@H]1C	-7	0	-6.3
CCCNC(=O)N1CC2(C1)[C@H](c1ccccc1)[C@H](CO)N2C(=O)C1CC1	6	-2	7.3
CNC(=O)C[C@@H]1CC[C@@H]2[C@H](COc3ccc(NC(=O)C4CC4)cc3C(=O)N2C)O1	1	-4	5.1
CCCN1[C@@H]2c3ccc(-c4cccnc4)c(=O)n3C[C@@H]2[C@@H](CO)[C@@H]1C(=O)NC1CCCC1	4	5	-1.6
COc1cccc(-c2ccc([C@H]3[C@@H](CO)N(C(C)=O)C34CN(C(C)=O)C4)cc2)c1	-4	-12	7.5
N#C[C@H]1[C@H](c2ccccc2-c2ccccc2F)[C@@H](CO)N1C(=O)C1CCC1	18	7	10
C/C=C/c1ccc2c(c1)[C@H]1[C@H](CCN1S(=O)(=O)c1ccc(C)cc1)[C@H](CO)N2	-3	1	-3.5
CCC(=O)N1CC2(C1)[C@H](c1ccc(-c3ccc(F)cc3)cc1)[C@@H](CO)N2S(C)(=O)=O	1	-2	2.9
CCCNC(=O)C[C@@H]1CC[C@@H]2[C@H](COC[C@@H](O)CN2Cc2cccc(F)c2)O1	5	4	0.6
CCCNC(=O)[C@@H]1[C@@H](CO)[C@@H]2Cn3c(ccc(-c4ccc(OC)cc4)c3=O)[C@@H]2N1CCC	0	3	-3.3
CC(C)CC#Cc1ccc([C@H]2[C@H]3CN(C(=O)Cc4ccccc4)CC(=O)N3[C@H]2CO)cc1	-2	-4	1.3
CO[C@H]1CN(C)C(=O)c2ccc(NC(=O)c3cccc(F)c3)cc2OC[C@@H](C)N(CC2CC2)C[C@H]1C	-2	-1	-1.4
CCC(=O)N1CC2(C1)CN(C(=O)c1cnccn1)[C@H](CO)c1c2c2ccc(OC)cc2n1C	20	22	-1.5
COc1ccc2c3c([nH]c2c1)[C@H](CO)N(S(=O)(=O)c1ccc(C)cc1)CC31CN(Cc2ccccc2)C1	?	·	·
COc1ccccc1S(=O)(=O)N(C)C[C@H]1Oc2cc(C#CCC(C)C)ccc2S(=O)(=O)N([C@@H](C)CO)C[C@@H]1C	-3	-6	2.4
COCC(=O)N1CC[C@@H]2[C@H]1c1cc(-c3cccc(OC)c3)ccc1N(C)[C@H]2CO	-8	0	-7.7
COCC#Cc1cnc2c(c1)C(=O)N([C@@H](C)CO)C[C@H](C)[C@@H](CN(C)C(=O)c1cnccn1)O2	-1	-2	1.3
CN1c2ccc(-c3cccc(C#N)c3)cc2[C@H]2[C@H](CCN2S(=O)(=O)c2cccc(F)c2)[C@@H]1CO	?	·	·
N#C[C@@H]1[C@H](c2ccc(C3=CCCCC3)cc2)[C@@H](CO)N1C(=O)CN1CCOCC1	1	4	-2.9
Cc1cccc(S(=O)(=O)N(C)C[C@H]2OCc3cnnn3CCCC(=O)N([C@@H](C)CO)C[C@H]2C)c1	6	3	3.2
C[C@@H](NC(=O)C[C@H]1C[C@H]2c3cc(NC(=O)Nc4ccccc4F)ccc3O[C@H]2[C@@H](CO)O1)c1ccccc1	?	·	·
CCC(=O)N1[C@H](CO)[C@H](c2ccc(C3=CCCC3)cc2)[C@H]1CNCC1CCCC1	4	3	1.4
CCCNC(=O)N1[C@@H](C#N)[C@@H](c2ccc(-c3cccc(OC)c3)cc2)[C@@H]1CO	0	-1	1.2
O=C(C[C@H]1C[C@H]2c3cc(NC(=O)C4CCOCC4)ccc3O[C@H]2[C@H](CO)O1)NCCN1CCCCC1	-1	2	-2.4
N#C[C@H]1[C@@H](c2ccc(C#Cc3ccccc3F)cc2)[C@@H](CO)N1C(=O)C1CC1	-4	1	-4.9
COc1cc(CN2C[C@@H]3N[C@H](C2)C3c2ccc(-c3cncnc3)cc2)cc(OC)c1 (some centres not stated)	2&-3	8&-6	-6.2&2.6
CCC(=O)N1CC2(C1)[C@H](c1ccc(C3=CCCC3)cc1)[C@H](CO)N2C(=O)COC	3	0	2.3
Cc1noc(C)c1NC(=O)N[C@@H]1CC[C@@H](CC(=O)NCc2ccc(Cl)c(Cl)c2)O[C@@H]1CO	2	6	-4.3
CCc1cnc(N2[C@H](C#N)[C@@H](c3ccc(C#CC(C)C)cc3)[C@@H]2CO)s1	-1	-7	5.8
COc1ccccc1CNC(=O)C[C@H]1C[C@@H]2c3cc(NS(=O)(=O)c4ccc(F)cc4)ccc3O[C@@H]2[C@@H](CO)O1	-8	-13	4.7
CO[C@@H]1CN(C)C(=O)c2ccc(NC(=O)c3cccc(F)c3)cc2OC[C@@H](C)N(CC2CC2)C[C@H]1C	-5	-6	1.0
Cc1noc(C)c1NC(=O)N(C)C[C@H]1Oc2c(NS(=O)(=O)c3ccc(Cl)cc3)cccc2C(=O)N([C@@H](C)CO)C[C@H]1C	-1	-3	1.8
O=C(C[C@@H]1CC[C@@H]2[C@H](COC[C@H](O)CN2Cc2cccc(Cl)c2)O1)NCc1cccc(F)c1	-4	2	-5.8
CN(C)C(=O)C[C@H]1CC[C@H]2[C@@H](COC[C@H](O)CN2Cc2ccc(C(F)(F)F)cc2)O1	2	1	0.8
COc1ccccc1NC(=O)N1C[C@@H](O)COC[C@@H]2O[C@H](CC(=O)NCCc3ccncc3)CC[C@H]21	2	8	-6.1
N#C[C@@H]1[C@H](c2ccccc2-c2ccc(F)cc2)[C@@H](CO)N1C(=O)Cc1ccccc1	-6	-3	-3.9
COCCN(C[C@H]1[C@@H](c2ccccc2)[C@H](CO)N1C(=O)C1CCC1)C(C)=O	-2	-8	5.5
O=C(CCN1CCCCC1)N[C@H]1CC[C@@H](CC(=O)N2CCC(Cc3ccccc3)CC2)O[C@H]1CO	3	5	-2.4
CN(C)C(=O)c1cccc(-c2ccccc2[C@H]2[C@H](C#N)N(C(=O)C3CC3)[C@H]2CO)c1	14	4	9.7
COc1ccccc1C(=O)N1C[C@H]2[C@@H](c3ccccc31)[C@H](CO)N2C(=O)C1CCOCC1	2	0	2.6
CCN1[C@H](C(=O)N(C)C)[C@@H](CO)[C@@H]2Cn3c(ccc(-c4cccc(C(=O)N(C)C)c4)c3=O)[C@@H]21	3	0	2.4
CO[C@H]1CN(C)C(=O)c2ccc(NS(C)(=O)=O)cc2OC[C@@H](C)NC[C@H]1C	2	5	-3.0
C[C@H]1CCCCO[C@H](CN(C)S(C)(=O)=O)[C@@H](C)CN([C@@H](C)CO)C(=O)c2cc(N(C)C)ccc2O1	3	-7	9.4
CCCNC(=O)C[C@@H]1CC[C@H]2[C@@H](COC[C@H](O)CN2Cc2cccc(F)c2)O1	4	5	-1.2
CN1[C@@H]2c3ccc(/C=C/c4ccccc4)c(=O)n3C[C@@H]2[C@@H](CO)[C@@H]1C(=O)NC1CCCC1	?	·	·

5 of the entries above in order of their number in DUX4 txn inh, descending.
SMILES	DUX4 txn inh	DUX4 txn inh difference	DUX4 txn inh control
CN(C)C(=O)c1cccc(-c2ccccc2[C@H]2[C@H](C#N)N(C(=O)C3CC3)[C@H]2CO)c1	14	4	9.7
CCCNC(=O)C[C@@H]1CC[C@H]2[C@@H](COC[C@H](O)CN2Cc2cccc(F)c2)O1	4	5	-1.2
C[C@H]1CCCCO[C@H](CN(C)S(C)(=O)=O)[C@@H](C)CN([C@@H](C)CO)C(=O)c2cc(N(C)C)ccc2O1	3	-7	9.4
CO[C@H]1CN(C)C(=O)c2ccc(NS(C)(=O)=O)cc2OC[C@@H](C)NC[C@H]1C	2	5	-3.0
N#C[C@@H]1[C@H](c2ccccc2-c2ccc(F)cc2)[C@@H](CO)N1C(=O)Cc1ccccc1	-6	-3	-3.9

As entered above.
Result of N#C[C@@H]1[C@H](c2ccccc2-c2ccc(F)cc2)[C@@H](CO)N1C(=O)Cc1ccccc1 in DUX4 txn inh control: -3.9
Result of COCCN(C[C@H]1[C@@H](c2ccccc2)[C@H](CO)N1C(=O)C1CCC1)C(C)=O in DUX4 txn inh difference: -8
Result of CCCNC(=O)C[C@@H]1CC[C@H]2[C@@H](COC[C@H](O)CN2Cc2cccc(F)c2)O1 in DUX4 txn inh: 4
Result of CCN1[C@H](C(=O)N(C)C)[C@@H](CO)[C@@H]2Cn3c(ccc(-c4cccc(C(=O)N(C)C)c4)c3=O)[C@@H]21 in DUX4 txn inh control: 2.4
Result of C[C@H]1CCCCO[C@H](CN(C)S(C)(=O)=O)[C@@H](C)CN([C@@H](C)CO)C(=O)c2cc(N(C)C)ccc2O1 in DUX4 txn inh difference: -7

Next part
SMILES	DUX4 txn inh	DUX4 txn inh difference	DUX4 txn inh control
N#C[C@H]1[C@H](c2ccc(C3=CCCC3)cc2)[C@H](CO)N1c1nc(-c2ccccc2)cs1	-4	-2	-1.7
C[C@@H]1CCCCO[C@@H](CN(C)S(=O)(=O)c2cn(C)cn2)[C@@H](C)CN([C@@H](C)CO)C(=O)c2cc(NC(=O)CCCN(C)C)ccc2O1	-5	-1	-3.5
CO[C@@H]1CN(C)C(=O)c2cc(NS(C)(=O)=O)ccc2OC[C@@H](C)N(CCC(F)(F)F)C[C@H]1C	-3	-3	0.2
CN1c2ccc(C#Cc3cccnc3)cc2[C@@H]2[C@@H](CCN2S(=O)(=O)c2ccccc2F)[C@@H]1CO	1	-1	1.8
CCC(=O)N1C[C@H](O)COC[C@H]2O[C@@H](CC(=O)NCc3ccccc3Cl)CC[C@@H]21	7	5	1.9
O=C(NCC1CC1)[C@H]1[C@H](CO)[C@H]2Cn3c(cccc3=O)[C@@H]1N2C(=O)c1cccnc1	-6	-3	-2.5
CCS(=O)(=O)N1[C@H](CO)[C@H](c2ccc(-c3cccc(F)c3)cc2)[C@@H]1C#N	-2	-2	-0.3
CN1[C@@H]2c3ccc(-c4ccncc4)c(=O)n3C[C@H]1[C@H](CO)[C@H]2C(=O)NC1CCCCC1	-1	2	-2.8
CCC(=O)N1CC2(CN(Cc3nccs3)C2)c2c(n(C)c3cc(OC)ccc23)[C@H]1CO	15	15	-0.1
CN1C(=O)c2cc(NC(=O)c3ccc(C#N)cc3)ccc2OC[C@H]2O[C@@H](CC(=O)Nc3cc(F)ccc3F)CC[C@@H]21	-1	1	-1.3
O=C(C1CC1)N1C[C@@H]2[C@H](c3ccccc31)[C@@H](CO)N2C(=O)c1cccc(F)c1	4	6	-2.1
O=C(C[C@@H]1CC[C@H]2[C@@H](COC[C@H](O)CN2Cc2cccc(C(F)(F)F)c2)O1)NCc1ccc(F)cc1	?	·	·
C[C@@H]1CN([C@@H](C)CO)C(=O)c2cccc(N(C)C)c2O[C@H]1CN(C)S(=O)(=O)c1cn(C)cn1	-6	-3	-2.7
COc1ccc2c3c([nH]c2c1)[C@@H](CO)N(Cc1nccs1)CC31CN(C(=O)C2CCOCC2)C1	16	17	-0.5
COc1ccc2c3c(n(C)c2c1)[C@@H](CO)N(CC1CC1)CC31CCN(Cc2nccs2)CC1	-7	1	-7.9
CN1C(=O)c2cc(NC(=O)Nc3ccccc3Cl)ccc2OC[C@@H]2O[C@@H](CC(=O)O)CC[C@@H]21	3	3	0.7
COc1cccc(-c2ccc3c(c2)[C@H]2[C@H](CCN2C(=O)CN2CCOCC2)[C@@H](CO)N3)c1	31	26	4.4
CCS(=O)(=O)N1CC(=O)N2[C@H](C1)[C@@H](c1ccc(-c3ccc(C)cc3)cc1)[C@@H]2CO	3	0	2.8
CO[C@H]1CN(C)C(=O)c2ccc(NC(=O)C3CCC3)cc2OC[C@@H](C)N(C(=O)CN(C)C)C[C@@H]1C	3	-1	3.2
CCS(=O)(=O)Nc1ccc2c(c1)C(=O)N(C)[C@@H]1CC[C@H](CC(=O)NCc3ccccc3F)O[C@@H]1CO2	3	0	2.7
